# High-throughput results as filed in PubChem.
# Menin MLL FP FL: menin-MLL binding inhibition, fluorescein peptide; 290,000 tested, under 10 active; Fluorescence polarization, fluorescein-MLL peptide displacement from menin; FP activity change, % at 61.4 µM; inconclusive = falling polarisation curve, or a change in total fluorescence; inactive = total fluorescence flat and polarisation flat or rising; no compound was filed as active; the % refers to the polarisation; negative = inhibition;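 note: % of control where 0% means no effect; inhibitors lower the polarisation; unlabelled MLL peptide was the positive control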
# TRPML1 ag: agonists of human TRPML1 channel. TRPML1-expressing cells, Ca2+ dye fluorescence, FDSS; host cell line not named in the record; reference of the full effect not given here. activation, % (concentration not given with the values). 410,000 tested, 0.12% active; in the data active = activation above about 50%; inconclusive = about 30% to 50%; inactive = below about 30%; note: 0% is about no effect; the text of the record puts the active cut at 80%
# Target sequence (Q9GZU1 whole entry, looked up): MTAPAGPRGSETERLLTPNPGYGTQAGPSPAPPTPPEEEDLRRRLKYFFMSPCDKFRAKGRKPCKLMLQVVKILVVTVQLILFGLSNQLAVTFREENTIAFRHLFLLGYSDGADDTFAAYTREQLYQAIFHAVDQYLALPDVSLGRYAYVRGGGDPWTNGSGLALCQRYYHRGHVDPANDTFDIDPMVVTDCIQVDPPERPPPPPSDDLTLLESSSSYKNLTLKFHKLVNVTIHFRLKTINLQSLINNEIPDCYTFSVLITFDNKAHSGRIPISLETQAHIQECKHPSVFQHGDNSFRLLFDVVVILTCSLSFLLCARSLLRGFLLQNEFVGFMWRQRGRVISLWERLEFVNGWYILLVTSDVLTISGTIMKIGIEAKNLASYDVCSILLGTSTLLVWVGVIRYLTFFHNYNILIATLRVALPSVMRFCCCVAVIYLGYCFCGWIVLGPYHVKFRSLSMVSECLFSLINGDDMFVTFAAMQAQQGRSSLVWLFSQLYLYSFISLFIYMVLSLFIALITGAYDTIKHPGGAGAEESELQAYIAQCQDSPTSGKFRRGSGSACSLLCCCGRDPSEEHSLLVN
#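 In this qHTS format, compounds were pin-transferred onto Ca8-dye-loaded TRPML1-DL cells induced with Tet overnight, and intracellular Ca2+ fluorescence was recorded kinetically for 110 s after a 10 s baseline. A subsequent 4uM final 54-4 (EC80) addition followed by a second 110 s read served as the antagonist phase.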
# Sfp PPTase inh: blocks B. subtilis Sfp PPTase activity; Biochemical Sfp PPTase activity, qHTS; 310,000 tested, 3.5% active; Potency, µM, without a hit: max response, negative = inhibition, actives largely listed as inhibitors; AID 1490; active = well fitted inhibition curve with a large enough effect; inconclusive = small, poorly fitted or top-dose-only effect, or another doubt; inactive = no such curve, though single readings can be large or run the other way;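 note: the enzyme is Sfp with the accession as filed and its product quenches rhodamine fluorescence; potency is the fitted concentration of half-maximal effect; 0% = enzyme reaction without inhibitor and -100% = no enzyme wells; top concentration of the series not given in the record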
#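 Buffer: 50 mM Hepes-Na pH 7.6, 10 mM MgCl2, 0.01% Nonidet P-40, 0.01% BSA. Enzyme 15 nM, pre-exposed to compound 15 min; substrates then added and fluorescence change tracked over 30 min.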
# PINK1 modulator: PINK1 expression modulation; Potency, µM (doses to about 76.6 µM), for inactives: at the highest dose activation (PINK1 increase), most hits filed as activators; AID 624263; 410,000 tested, 0.2% active; PINK1 immunofluorescence, high-content cytometry, 24 h; active = well fitted activation curve with a large enough effect; inconclusive = small, poorly fitted or top-dose-only effect; inactive = flat fitted curve, though single readings scatter; cell line not stated here;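 note: potency is the fitted concentration of half-maximal effect; % of control where 0% means no effect; nearly all actives have a fitted effect of over 65% in size; a mitochondrial uncoupler was the plate control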
#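 PINK1 protein level read as immunofluorescence by microplate cytometer in a fixed, stained stable cell line after 24 h exposure to five compound concentrations, with CCCP as control.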
# TRPML1 inh: blocks the human TRPML1 channel | activity change, negative = inhibition, % (test concentration not listed) | TRPML1-inducible cells, Ca2+ dye fluorescence, FDSS; hits give low values; inhibition of EC80 agonist-evoked calcium signal | 390,000 tested, 0.02% active; in the data active means activity change below about -50%; inconclusive means about -30% to -50%; inactive means above about -30%;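 note: stimulus is agonist 54-4 at its EC80 concentration; % is set by controls: 0 for no effect and ±100 for the full control effect; compound concentration not given in the record; the text of the record puts the active cut at -80%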
#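 Calcium fluorescence in TRPML1-DL cells induced overnight with Tet: a 110 s read after compound pin addition, then a 110 s antagonist read after challenge with 54-4 at 4 uM final (EC80).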
# ClpP mod: qHTS Assay for Activators of ClpP | AID 651965, 2013 | Potency, µM (titrated, usually from 57.5 µM), inactives show top-dose activity change, negative = active | 340,000 tested, 1.9% active | ATP-dependent Clp protease proteolytic subunit (Bacillus subtilis (strain 168)), P80244 | purified B. subtilis ClpP, FRET peptide cleavage, 20 min; active = well fitted falling curve with a large enough effect; inconclusive = small, poorly fitted or top-dose-only effect; inactive = no such curve, though single readings can be large or run the other way; note: potency is the fitted concentration of half-maximal effect; the source files actives as falling curves though it sought activators and does not explain the sign; nearly all actives have a fitted effect of over 65% in size; many hits overshoot -100%
# Target sequence (P80244 whole entry, looked up): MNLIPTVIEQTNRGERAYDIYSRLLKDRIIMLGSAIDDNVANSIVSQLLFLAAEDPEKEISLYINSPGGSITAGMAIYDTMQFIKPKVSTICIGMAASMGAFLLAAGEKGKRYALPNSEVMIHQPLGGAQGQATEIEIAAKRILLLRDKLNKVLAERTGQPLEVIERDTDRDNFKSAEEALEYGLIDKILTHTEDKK
#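 Purified B. subtilis ClpP, 10 microg/mL final in Tris/HCl pH8 with KCl, BSA, glycerol and Tween-20, cleaved an Abz/nitrotyrosine-quenched decapeptide. Fluorescence (ex 320, em 430) was read at 0 and 20 min at room temperature. Delta was normalized to 5.8 microM ADEP and DMSO/no-enzyme controls.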
# TRPV1 PAM: human TRPV1 potentiation. Q8NER1. potentiation, % at 8.33 µM. 320,000 tested, 0.02% active. AID 540277. TRPV1-expressing cells, Fluo-8 calcium influx, capsaicin EC20 potentiation; host cell line not named in the record; control for the full effect not named in the record; active means potentiation above 80%; inconclusive means 30% to 80%; inactive means below 30%; note: 0% is about no effect
#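 TRPV1-expressing cells were cultured overnight at 35.5C and loaded with Fluo-8 calcium dye for 40 to 90 min at room temperature. After a 10 s baseline, compound was added and calcium influx was read kinetically for 3 min (ex 480/em 520 nm).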
# Numbers without * were called inactive; ? = inconclusive; . = not tested or not shown; & = joins results of further samples. Compounds as they come (roughly 4.4% active in at least one column).
SMILES,Menin MLL FP FL,TRPML1 ag,Sfp PPTase inh,PINK1 modulator,TRPML1 inh,ClpP mod,TRPV1 PAM
CC(C)N(C(=O)c1ccc2nc(-c3ccccc3)c(-c3ccccc3)nc2c1)C(C)C,3.9,0.3,?,14.4%,26.0,28.2µM*,0.6
Cc1nnc(SCC(=O)N2CC(C)OC(C)C2)n1-c1ccccc1 (configuration not stated),0.2,0.1,19.5%,1.0%,-1.2,.,-9.7
C[C@@H]1CN(c2c(F)c(F)c3c(=O)c(C(=O)O)cn(C4CC4)c3c2F)C[C@H](C)N1,?,1.8,6.8%&24.4%&5.8%,-2.1%,16.2,?,-2.0
COc1ccc(Cl)cc1CNC[C@H]1O[C@@H](n2ccc(N)nc2=O)[C@H](O)[C@@H]1O,.,-0.3,.,-1.2%,3.3,0.0%,.
CCOCCCNc1nc(-c2ccccc2)nc2ccccc12,1.4,-1.0,14.7%,11.4%,-6.3,-6.6%,-3.5
CCOC(=O)Cn1nc(-c2ccc(C)cc2)c2ccccc2c1=O,0.7,2.6,-1.5%,-0.2%,39.7,-5.0%,-4.2
C=CCOc1ccc(/C=C/C(=O)OCC(=O)NCC2CCCO2)cc1 (configuration not stated),.,-0.3,.,4.8%,-25.6,3.2%,-8.0
c1ccc2[nH]c(NCc3ccc4c(c3)OCO4)nc2c1,-2.3,0.9,1.8%,-0.7%,-6.9,.,2.0
CC1CCCCC1NC(=O)CCS(=O)(=O)c1cc2c(cc1Cl)NC(=O)CO2 (configuration not stated),3.7,-0.3,10.1%,-1.5%,0.6,0.9%,-12.8
COc1ccc(C(O)c2nc(-c3cccs3)cs2)cc1 (configuration not stated),.,-0.5,.,0.8%,.,0.1%,.
NC(=O)c1ccccc1OCC(=O)NC12CC3CC(CC(C3)C1)C2,-2.7,-0.7,-3.1%,2.0%,-13.7,-5.3%,21.6
Cc1nnc(NC(=O)COc2ccc3c(C)cc(=O)oc3c2)s1,5.0,-0.4,-27.4%,-1.4%,-15.1,0.9%,4.8
C=CCN(CC=C)C(=O)c1cc(Cl)ccc1[N+](=O)[O-],4.2,0.8,14.5%,0.2%,-6.4,-2.5%,1.2
CC(=O)Nc1ccc(S(=O)(=O)Nc2nnc(Cc3ccc(Cl)cc3)s2)cc1,-11.7,-0.4,?,7.1%,-4.9,-0.7%,-27.6
CC1(C(=O)NCc2cccnc2)Cc2c(-c3cccc(C(F)(F)F)c3)ccnc2O1 (configuration not stated),.,-0.7,.,6.6%,.,-4.0%,.
Cc1ccnc(NC(=O)CCCc2c[nH]c3ccccc23)c1,.,-0.6,5.2%,9.0%,-8.3,-2.0%,-15.8
O=S(=O)(c1ccc(Br)cc1)N1CCn2cccc2C1c1ccc(Br)cc1 (configuration not stated),.,4.8,.,2.6%,8.1,-3.9%,.
CC(NC(=O)C1CCCN(S(=O)(=O)N2CCOCC2)C1)c1ccccc1 (configuration not stated),.,-0.1,2.3%,-0.3%,17.0,-1.4%,-10.0
Cc1cc(NCCCN2CCOCC2)n2nc(C)c(-c3ccc(F)cc3)c2n1,0.7,-0.4,-20.7%,0.4%,1.4,-2.5%,14.9
CC(=O)Nc1cccc(-c2cc(NC=O)c3ncc(-c4cccc(C(C)=O)c4)n3c2)c1,.,-0.9,.,3.7%,.,-7.1%,.
COCCn1c(SC(C)C(=O)NCC2CCCO2)nc2scc(-c3ccc(F)cc3)c2c1=O (configuration not stated),.,0.5,.,1.6%,-8.1,6.6%,-14.7
CC(C)OCCCNC(=O)C1CCC(CNS(=O)(=O)c2ccc(Cl)cc2)CC1 (configuration not stated),-0.3,0.8,10.7%,4.0%,-5.0,-1.7%,-13.2
O=c1c2cc([N+](=O)[O-])cc([N+](=O)[O-])c2[nH]n1-c1ccccc1,-0.3,2.1,-18.5%,1.7%,-24.1,.,21.6
Cc1cccc(CNC(=O)Cn2ccc3cc(S(=O)(=O)N4CCCC4)ccc32)c1,2.8,1.6&2.2,10.7%,2.8%&7.2%,9.6&22.6,3.6%&3.3%,-6.3
COc1cccc(NC(=O)C(Sc2nnc(-c3ccncc3)n2-c2ccc(Cl)cc2)c2ccccc2)c1 (configuration not stated),6.6,0.0,0.6%,0.3%,0.6,-18.1%,-8.7
CC1(CNC(=O)C(=O)NCC2(C)CO2)CO1 (configuration not stated),.,-0.2,.,-3.5%,11.0,.,.
Cc1onc(C(=O)NCc2cccs2)c1[N+](=O)[O-],-2.8,0.4,8.0%,1.4%,2.8,.,0.0
CC1CC(C)CN(S(=O)(=O)c2ccc3c(c2)oc(=O)n3CC(=O)N2CCOCC2)C1 (configuration not stated),-0.7,-0.1,4.4%,-1.0%,16.7,0.4%,28.8
COc1ccccc1NC(=O)CSc1nnnn1C1CCCC1,-1.9,0.1,4.4%,0.5%,-11.4,.,-22.5
CCC(C)c1ccccc1NC(=O)CN(C)CC(=O)Nc1ccccc1SC (configuration not stated),0.7,-0.1,13.7%,0.4%,3.6,.,11.8
CCc1cc[n+](-c2nc([O-])sc2C=O)cc1,?,3.4,50.1µM*,-1.0%,65.2,-17.8%,-3.1
Cn1cnc(S(=O)(=O)N2CCC(C(=O)NCc3ccc(F)cc3)CC2)c1,.,0.2,.,1.0%,5.5,-1.0%,.
COc1ccc(C2(CNC(=O)C(=O)Nc3ccc(C)c(Cl)c3)CCCC2)cc1OC,.,-0.1,.,0.8%,13.6,-1.1%,.
CCCCNC(=O)C1CCN(c2nc(C)cc(C)n2)CC1,2.3,0.5,5.3%,-1.5%,5.3,4.0%,3.0
CCCn1c2ccccc2c2cc(C(=O)O)ccc21,-0.9,-0.7,-14.8%,0.1%,54.4,-20.4%,.
Cc1c(CC(=O)NCCCCCC(=O)O)c(=O)oc2cc3c(cc12)CCC(C)(C)O3,1.7,-0.2,4.1%,2.0%,-4.5,.,1.6
CC(C)NC(=O)C(c1ccc(F)cc1)N(C(=O)CCC(=O)Nc1ccccn1)C1CCCCC1 (configuration not stated),-0.7,0.0,6.0%,3.3%,-6.3,-5.1%,-0.3
O=C(NC(=S)Nc1ccc(N2CCOCC2)cc1)c1ccco1,14.6,0.9,?,7.7%,-5.5,0.9%,2.8
O=C(Nc1ccccc1Cl)OC1CCCCC1,6.6,0.0,3.1%,7.7%,-10.6,.,-5.6
Cc1ccccc1NC(=O)/C=C1\SC(=O)NC1=O,0.1,0.8,4.6%,0.2%,7.0,.,-12.7
O=C(Nc1cccc(Br)c1)c1ccc(CSc2ccccc2)cc1,4.6,4.8,13.3%,?,-16.4,-15.3%,-14.3
O=C(NCC1CCCO1)c1ccc2c(=O)n(Cc3ccc(Cl)cc3)c(=S)[nH]c2c1 (configuration not stated),1.9,-0.4,7.8%,2.7%,4.0,0.6%,6.4
O=C(Oc1ccc(C(=S)N2CCOCC2)cc1)c1ccc([N+](=O)[O-])cc1[N+](=O)[O-],-1.6,-0.1,-9.5%,-0.8%,10.1,-0.7%,10.1
COc1ccc(C(=O)NCC(=O)N/N=C/c2cn(C)c3ccccc23)cc1OC,.,-0.3,12.9%,0.4%,-4.6,-0.7%,-2.3
COc1ccc(OC)c(NC(=O)C(C)OC(=O)c2cc3ccccc3[nH]2)c1 (configuration not stated),.,3.1,.,-1.1%,8.7,-11.1%,.
CCN1CCN(CCCNc2ncnc3nc[nH]c23)CC1,-0.2,-0.5,6.3%,-0.6%,-9.3,1.0%,-8.5
O=C(O)CC(NC(=O)c1sc2ccccc2c1Cl)c1ccc(OC2CCCC2)cc1 (configuration not stated),-3.8,-0.3,?,-0.5%,-10.4,.,-19.4
COc1ccc2nc(SCC(=O)NCc3ccccc3)[nH]c2c1,-0.8,0.6,8.7%,3.5%,21.9,-2.9%,-7.4
COc1ccccc1-n1nnnc1SCC(=O)NCC1(N2CCCCC2)CCCCC1,.,-0.5,.,0.5%,-10.1,.,.
CN(CC(=O)NCCc1ccc(S(N)(=O)=O)cc1)CC(=O)Nc1ccccc1Cl,.,-0.2,.,1.5%,2.0,2.1%,-4.0
COc1cc(CNCc2cccs2)cc(Br)c1OC,2.0,0.9,-2.0%,1.6%,-0.1,2.1%,-22.7
CC1CCCC(C)N1NC(=O)c1ccc(Cl)c(S(N)(=O)=O)c1 (configuration not stated),2.2&3.4,-0.2,-6.5%&14.8%,2.8%,-3.1,0.2%,2.9
CCN(CC)c1ccc(NC(=O)c2cc(Cl)ccc2OC)cc1,0.6,0.1,-9.2%,0.3%,21.3,-1.5%,-6.3
CSc1sc(C)cc1C=O,0.2,1.6,15.7%,-1.5%,10.5,.,-10.2
Cc1cccc(NC(=S)Nc2ccc(Br)cc2)c1,5.2,-0.2,-17.6%,4.4%,-15.5,-0.6%,20.7
COc1ccccc1/C=C/C=NC1C(=O)N(c2ccccc2)[N+](C)=C1C (configuration not stated),-0.6,-0.4,-2.4%,0.2%,47.2,.,1.8
CC(C)Oc1ccc(/C(O)=C2/C(=O)C(=O)N(CCN(C)C)C2c2ccco2)cc1 (configuration not stated),7.6,0.9,-18.5%,-0.8%,22.4,-3.3%,7.9
Cn1c(N)c(S(=O)(=O)N2CCN(C(=O)c3ccco3)CC2)c(=O)n(C)c1=O,-0.6,0.3,-4.5%,1.3%,-1.1,.,?
Cc1noc(C)c1C(=O)N1CCC[C@@]2(CCN(Cc3ccccc3)C2)C1,-0.9,.,25.9%,-0.1%,.,.,.
Cc1noc(NS(=O)(=O)c2ccc(NC(=O)CCC3CCCCC3)cc2)c1C,-4.2,-0.7,20.7%,0.9%,5.0,0.3%,-2.4
# Additional structures:
SMILES,Menin MLL FP FL,TRPML1 ag,Sfp PPTase inh,PINK1 modulator,TRPML1 inh,ClpP mod,TRPV1 PAM
CC(CNS(=O)(=O)c1ccccc1)(c1ccccc1)N1CCOCC1 (configuration not stated),0.4,-1.5,22.0%,0.9%,14.9,1.1%,-5.6
Cc1cc(N2CCOCC2)nc(-c2ccccc2O)n1,-1.6,-0.5,-7.2%,-1.9%,-8.0,1.1%,-13.7
CCOC(=O)c1ccccc1NC(=O)Cc1ccc(OC)c(S(=O)(=O)N2CCOCC2)c1,.,2.0,.,-1.2%,17.5,.,.
N#Cc1ccc(C(=O)Nc2cc3nn(-c4ccccc4)nc3cc2Cl)c(F)c1,.,2.4,.,3.6%,13.0,-10.4%,.
CCn1c(SCC(=O)c2cc(C)n(C)c2C)nnc1-c1ccccc1,-0.6,0.7,13.3%,5.9%,18.0,-2.3%,6.4
